Assay outcomes: PubChem, Fisher Drug Discovery Resource Center
NPYLR7 ag = agonists of mosquito NPYLR7 receptor, primary screen, cell-based, Aedes aegypti, calcium fluorescence, mosquito biting behavior; Aedes aegypti neuropeptide Y-like receptor 7 (NPYLR7); HEK293T NPYLR7/Galpha15, GCaMP6s calcium fluorescence; activation, % at 10 µM; 270,000 compounds, 0.15% hits; in the data active = activation above about 40%;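 also: 0% = vehicle and 100% = reference agonist at the receptor; some compounds past the cut are filed as inactive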
NPYLR7 ag max-min = also measured in NPYLR7 ag; calls as there; activation, %; measured here: Max-Min RFU normalised activation; some inactives read as strong as hits;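 span of the calcium signal over five minutes; 0% = vehicle and 100% = native peptide agonist; compound fluorescence can raise it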
* = called active by the depositor; & = joins results of further samples. The list is partial; the hit share may differ from the screen's.

SMILES	NPYLR7 ag	NPYLR7 ag max-min
CCCCc1nc(N2CCCN(C(=O)c3ccc4c(c3)OCO4)CC2)c2c(-c3ccc4ccccc4c3)noc2n1	-5	-8
COc1ccc(-c2cc(CNC(=O)C3CC=CCC3)no2)cc1 (configuration not stated)	5	6
C#CCN(CC=C)c1nc2nonc2nc1N1CCCC1	9	5
Nc1ccc2cc(O)cc(S(=O)(=O)O)c2c1	-10	-21
COc1ccccc1-c1coc2cc(OC(C)=O)ccc2c1=O	-1	-7
O=c1c2c3nc4ccccc4nc3n(C3CCCC3)c2ncn1Cc1ccco1	-3	-3
CC(C)c1cc(=O)[nH]c(-n2nc(-c3cccs3)cc2NC(=O)/C=C\c2ccc3c(c2)OCO3)n1	2	0
O=C(NCc1ccco1)c1cc2c(s1)CS(=O)(=O)C2	5	3
COc1ccc(N2CCN(C(CNC(=O)OCc3ccccc3)c3ccc4c(c3)OCO4)CC2)cc1 (configuration not stated)	-1	-5
O=C(N[C@@H]1c2ccccc2C2(CCN(C(=O)/C=C/c3ccc(F)cc3)CC2)[C@H]1O)c1ccccc1	15	0
Cc1occc1-c1nnc(SCCC(N)=O)n1-c1ccccc1	13&9	13&10
CC(C)Nc1ncc(C(=O)NCc2cccnc2N2CCN(C)CC2)cn1	6	3
CC(C)(C)c1cc(NC(=O)c2ccccc2C(F)(F)F)n(-c2ccccc2Cl)n1	19	1
COC(=O)C(c1ccc(F)cc1Cl)C1C=CC(NC(=O)/C=C/c2ccccc2Cl)C1 (configuration not stated)	4	4
COc1ccc(CC(=O)Oc2c(S(=O)(=O)c3ccc(C)cc3)c(C)nn2C(C)(C)C)cc1	1	22
CCCCCc1c(O)nc(SCCN(CCC)CCC)[nH]c1=O	0	-4
Cc1cc(C(=O)N(Cc2ccccn2)c2nc3c(C(C)C)cccc3s2)on1	6	10
c1cc2cc(CN3CCOC4(CNCCOC4)C3)ccc2o1 (configuration not stated)	7	6
COCCn1c(SCC(=O)Nc2ccccc2)nc2c(c1=O)SC(C)C2 (configuration not stated)	-5	-7
COc1ccc(Cl)cc1NC(=O)CCC1CCCN(Cc2ccccn2)C1 (configuration not stated)	5	8
NC(=O)c1c(NC(=O)Cn2cnc([N+](=O)[O-])n2)sc2c1CCCC2	6	3
CN1C(=S)N(c2ccc3c(c2)CCC3)C(=O)/C1=C\c1ccncc1	41*	48*
Cc1cc(C)c2oc(=O)cc(CN3CCCCC3)c2c1	-2	-4
CCCCCn1c(=O)c2c(nc3n2CCN3Cc2ccco2)n(C)c1=O	-1	-5
CN(Cc1ccccc1)Cc1nc(C(C)(C)C)cs1	3	1
Cc1cc(Cl)ccc1C(=O)C1CCCN(C(=O)c2cccs2)C1 (configuration not stated)	4	3
COCCN(Cc1c(-c2cccc(C)c2)noc1N1CCCC1)C(=O)CC(C)C	-3	-2
Cc1c(C(=O)NCc2ccc(F)cc2)sc(=O)n1Cc1ccc(Cl)c(Cl)c1	14	10
Cc1ccccc1C(=O)NNC(=O)c1cc(F)ccc1F	6	1
Cc1ccc(CN(Cc2nc3cc(C)ccc3o2)C(=O)C(C)Oc2ccccc2)cc1 (configuration not stated)	4	1

Grouped by structure, the compounds so far containing fluorine (5)
SMILES	NPYLR7 ag	NPYLR7 ag max-min
O=C(N[C@@H]1c2ccccc2C2(CCN(C(=O)/C=C/c3ccc(F)cc3)CC2)[C@H]1O)c1ccccc1	15	0
CC(C)(C)c1cc(NC(=O)c2ccccc2C(F)(F)F)n(-c2ccccc2Cl)n1	19	1
COC(=O)C(c1ccc(F)cc1Cl)C1C=CC(NC(=O)/C=C/c2ccccc2Cl)C1 (configuration not stated)	4	4
Cc1c(C(=O)NCc2ccc(F)cc2)sc(=O)n1Cc1ccc(Cl)c(Cl)c1	14	10
Cc1ccccc1C(=O)NNC(=O)c1cc(F)ccc1F	6	1

(cont.)
SMILES	NPYLR7 ag	NPYLR7 ag max-min
CCCN(C)C(=O)c1ccc(CSc2nnc(Cc3ccccc3)n2-c2ccc(C)cc2)cc1	5	21
CNc1ccc(C(=O)N2CCOC(COc3ccccc3OC)C2)cc1 (configuration not stated)	-6	-10
COc1cc2c(cc1OC)C1CN(C(=S)Nc3cc(Cl)ccc3F)CC(=O)N1CC2 (configuration not stated)	28	15
Cn1cccc1-c1cc(C(=O)O)[nH]n1	-4	-7
CN(CC(=O)NC(C)(C)C)c1nc(N2CCCC2)nc(N2CCCC2)n1	1	1
CC(Sc1nncn1C1CC1)C(=O)Nc1ccccc1OC(F)F (configuration not stated)	-7	-11
Cc1cc(Br)c2[nH]c(O)c(N=NC(=O)c3cccc(O)c3)c2c1	2	-5
O=C(NCc1ccncc1)c1cnn(-c2ccccc2)c1C(F)(F)F	0	0
Cc1[nH]ncc1CCCNc1ncccn1	9	5
N#CCSc1nc(=O)n2ccccc2n1	15	12
Nc1ccnn1Cc1ccccc1Br	2	5
COc1c(C)cnc(CSc2nc3cc(S(=O)(=O)N4CCCC4)ccc3n2CC2CC2)c1C	5	4
CC(=O)N1N=C(c2cccs2)CC1c1ccc(Br)cc1 (configuration not stated)	-8	-11
CCOC(=O)C1=C(C)N=c2s/c(=C/c3ccc(Cl)cc3Cl)c(=O)n2C1c1ccc(C)cc1 (configuration not stated)	-2	-5
CC(C)(C)CC(C)(C)Nc1c(-c2ccc(OC(=O)c3cccc(F)c3)cc2)nc2ccccn12	4	8
CC1(C)C=C2C(=NN(c3ccc(I)cc3)C(=N)C2C#N)CO1 (configuration not stated)	3	-2
O=C(NC1CCCCC1)N1CCCN(c2cc(Oc3ccc(F)c(Cl)c3)ncn2)CC1	-10	-9
CCCn1c(SCc2coc(-c3cccs3)n2)n[nH]c1=O	-2	0
CCCCCn1c(=O)c2c(nc3n2CC(C)CN3C2CCCCC2)n(C)c1=O (configuration not stated)	6	9
CCN(CC(=O)NC(C)(C)C)C(=O)c1cc(Cl)ccc1F	-1	2
CCOC(=O)c1nn(-c2ccccc2)c(=O)cc1OCc1cc(C)ccc1C	14	9
O=C(Nc1nc(C23CC4CC(CC(C4)C2)C3)cs1)c1ccc(F)cc1	-5	-4
Cc1cccc(C(=O)N2CCCC(CCC(=O)Nc3ccc(C(F)(F)F)cc3)C2)n1 (configuration not stated)	7	7
CCOc1ccc(C2NC(=O)NC(C)=C2C(=O)OC2CCCC2)cc1 (configuration not stated)	-4	-6
Cc1ccc(C)c(OCC(O)Cn2c(=O)c3nccnc3c(=O)n2C)c1 (configuration not stated)	4	10
Cc1ccc(-c2csc(-n3[nH]c(C)c(N=Nc4cc(C(F)(F)F)ccc4Cl)c3=O)n2)cc1	10	13
COc1cccc(CN2C(=O)C3(SCCN3C(=O)NC3CCCCC3)c3cc(Cl)ccc32)c1 (configuration not stated)	8	12
CCC1(CC)CNc2ccccc21	13	8
NC(=O)c1cc2ccccc2o/c1=N/NC(=O)c1cccc(Cl)c1	-16	-16
Cc1nc2c(c(N(C)C)n1)CCN(C(=O)c1cccc(S(C)(=O)=O)c1)C2	5	2
CC1(C(=O)NCc2ccc3c(c2)OCO3)CCN1C(=O)Cc1ccccc1Cl (configuration not stated)	0	-1
COCCN(CC(=O)N(Cc1cccn1Cc1ccccc1Cl)CC(C)C)C(=O)c1cccc(Br)c1	-6	-6
Cc1ccc(C(=O)Nc2sc3c(c2C(=O)N2CCN(Cc4ccccc4)CC2)CCCCC3)cc1	-4	-5
CCCCn1c(C)cn2c3c(=O)n(Cc4cc(C)ccc4C)c(=O)n(C)c3nc12	8	11
CN(Cc1ccc(N(C)C)cc1)C(=O)C1CC1c1cccc(F)c1 (configuration not stated)	1	-1
O=C(NCc1ccc(F)cc1)NCC1CN(c2ccccc2)C(=O)O1 (configuration not stated)	3	8
Cn1c(=O)c2c(nc(CN3CCOCC3)n2Cc2ccc(F)cc2)n(C)c1=O	4	-1
CCOC(=O)CSC1=C(C#N)C(c2ccc(OC)cc2)CC(=O)N1 (configuration not stated)	-3	-9
CCN1C(=O)SC(Nc2cc(C)ccc2C)C1=O (configuration not stated)	6	7
Cc1nnc(CSc2nnc(-c3c[nH]c4ccccc34)o2)o1	1	0
Cc1onc(-c2ccccc2Cl)c1C(=O)N1CCN(c2cccc(Cl)c2)CC1	3	3
Cc1ccnc(NC(=O)CC2CSc3nc4c(cnn4-c4ccccc4)c(=O)n32)c1 (configuration not stated)	1	-1
O=C(OCCNC1=C(n2nnc3ccccc32)C(=O)c2ccccc2C1=O)c1ccc(F)cc1	7	7
Cc1cccc(C)c1OCC(O)Cn1cnc2ccc(Br)cc2c1=O (configuration not stated)	8	4
Cc1cccc(CNC(=O)N(C)CC2CCCC2)n1	-5&-2	-7&17
Clc1ccc(CN2CCN(N=Cc3ccncc3)CC2)cc1	1	1
COc1ccc(CN(C)C(=O)c2cc(-c3cccnc3)on2)cc1	-2	-4
CN1CCCCCC1(C)C(=O)NCc1ccc2c(c1)OCO2 (configuration not stated)	1	-2
COc1ccccc1CCNC(=O)c1ccccc1N1CCC(NC(=O)c2cccs2)CC1	-1	7
CN(C)c1ccc(C2N3CC4([N+](=O)[O-])CN2CC([N+](=O)[O-])(C3)C4(C)C)cc1 (configuration not stated)	5	2

(continued)
SMILES	NPYLR7 ag	NPYLR7 ag max-min
COc1ccc(OC)c(-n2ccc3c(cnc4ncnn43)c2=O)c1	5	7
CN1C(=S)N(c2ccc3c(c2)CCC3)C(=O)/C1=C/c1ccc2c(c1)OCCO2	22	17
O=C(NNC(=O)C1COc2ccccc2O1)c1n[nH]c(=O)c2ccccc12 (configuration not stated)	-2	-3
Cc1cc(-c2nnc(CCC(=O)N3CCc4c(Cl)cccc4C3)o2)no1	3	0
NC(=O)c1ccc(I)c([N+](=O)[O-])c1	-1	-9
Nc1ccnc(CNC(=O)C2CC2c2cccc(Cl)c2)n1 (configuration not stated)	0	21
O=C(c1cn(-c2ccccc2)nn1)N1CCN(C(=O)C2CCCO2)CC1 (configuration not stated)	-6	-7
CCOC(=O)C1(Cc2ccc(OC)cc2)CCN(S(=O)(=O)c2c(C)noc2C)CC1	1	-3
CC(=O)N1CCC(NCc2ccc(Br)s2)C(C)C1 (configuration not stated)	3	3
CN(C(=O)c1nc(Cl)ccc1Cl)C1C2CC3CC(C2)CC1C3 (configuration not stated)	9	5

One compound at a time (already shown):
CN1C(=S)N(c2ccc3c(c2)CCC3)C(=O)/C1=C/c1ccc2c(c1)OCCO2 as listed: NPYLR7 ag: 22; NPYLR7 ag max-min: 17
NC(=O)c1ccc(I)c([N+](=O)[O-])c1 as listed: NPYLR7 ag: -1; NPYLR7 ag max-min: -9

The listing continues:
SMILES	NPYLR7 ag	NPYLR7 ag max-min
Cc1cn(S(=O)(=O)c2ccc(Cl)cc2)c(C)n1	5	3
C(=Nc1nc2ccccc2n1CCN1CCCCC1)c1cccs1	0	-1
Cc1ccc(CN(CC(O)COc2ccccc2C)CC2CCCO2)o1 (configuration not stated)	11	25
Cc1cccc(Cn2cc(N3C(=O)C4C5CCC(O5)C4C3=O)cn2)c1 (configuration not stated)	-1	-3
CC(C)C1N(C(N)=S)N=CC1(C)C (configuration not stated)	0	24
CCOC(=O)c1ccccc1SCC(c1ccccc1OC)[N+](=O)[O-] (configuration not stated)	27	27
OC(COc1ccc2c(c1)OCO2)CN1CCN(c2ccc(F)cc2)CC1 (configuration not stated)	6	9
Cc1ccc(F)c(Oc2cc(N3CCN(C(=O)Cc4cccs4)CC3)ncn2)c1	-9	-2
CC1C(=O)N(c2ccc3c(c2)OCO3)CCN1C(=O)C1CCC1 (configuration not stated)	30	22
COc1cccc(C(CN2CCN(C(=O)C3C[C@H]3c3ccccc3)CC2)OCc2ccc(C#N)cc2)c1 (some centres not stated)	-2	4
COc1cc(CN2CCCn3cccc3C2c2cc(OC)ccc2OC)cc(OC)c1 (configuration not stated)	-4	-5
C=CCC(=O)NCC1CCN(Cc2ccc(C(F)(F)F)nc2)C1 (configuration not stated)	2	-4
CCN1CCN(c2ncc(-c3cc(=O)[nH]c(Nc4ccccc4C)n3)c(C)n2)CC1	0	-4
Cc1ccc(-n2c(-c3ccc(Cl)cc3)cc(C(=O)N(CCC#N)Cc3cccnc3)c2C)cc1	-11	-5
NC(=O)c1cc(NC(=O)CCC(=O)O)ccc1Cl	19	13
NC(=O)c1nnc2n1CCN(C(=O)c1cccc3c1OCCO3)C2	4	2
O=C(NCc1cccnc1Oc1ccccc1F)c1cccc2c1OCC2	0	-3
CCOCCn1c(CN2CCN(c3ccccc3F)CC2)nc2c1c(=O)n(C)c(=O)n2C	14	8
CCOC(=O)c1c(NC(=O)CCN2CCOCC2)sc(C)c1-c1ccccc1	-6	-12
Cn1c(=O)c2[nH]c(SCC(=O)C(C)(C)C)nc2n(C)c1=O	1	7
COCCN(Cc1ccc(OS(=O)(=O)c2ccc(NC(C)=O)cc2)cc1)C(=O)c1ccccc1Cl	2	8
O=S1(=O)CC2N=C(Nc3ccc(F)cc3F)SC2C1 (configuration not stated)	-1	-2
CCOc1ccccc1N1CCN(S(=O)(=O)c2cc(OC)ccc2OC)CC1	4	-1
CCOCCn1c(SCC(=O)OCC)nc2c1c(=O)[nH]c(=O)n2C	0	2
Cc1ccc(C)c(COC(=O)c2cc(S(N)(=O)=O)ccc2N2CCOCC2)c1	-2	-1

3 neighbouring records already listed:
SMILES	NPYLR7 ag	NPYLR7 ag max-min
CCOc1ccccc1N1CCN(S(=O)(=O)c2cc(OC)ccc2OC)CC1	4	-1
CCOCCn1c(SCC(=O)OCC)nc2c1c(=O)[nH]c(=O)n2C	0	2
Cc1ccc(C)c(COC(=O)c2cc(S(N)(=O)=O)ccc2N2CCOCC2)c1	-2	-1
